Menin-MLL FL inh: qHTS Assay for Inhibitors Targeting the Menin-MLL Interaction in MLL Related Leukemias: Competition With Fluorescein Labeled MLL-derived Peptide; FP activity change, % at 61.4 µM; AID 1766, 2009; 290,000 tested, under 10 active; Fluorescence polarization, fluorescein-MLL peptide displacement from menin; inconclusive = falling polarisation curve, or a change in total fluorescence; inactive = total fluorescence flat and polarisation flat or rising; no compound was filed as active; the % refers to the polarisation; negative = inhibition;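 also: % of control where 0% means no effect; inhibitors lower the polarisation; unlabelled MLL peptide was the positive control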
TRPML1 ag: qHTS for Agonists of the Human Mucolipin Transient Receptor Potential 1 (TRPML1); Mucolipin-1 (Homo sapiens), Q9GZU1; TRPML1-expressing cells, Ca2+ dye fluorescence, FDSS; host cell line not named in the record; reference of the full effect not given here; activation, % (no concentration beside the values); 0.12% of 410,000 active; in the data active = activation above about 50%; inconclusive = about 30% to 50%; inactive = below about 30%; also: 0% is about no effect; the text of the record puts the active cut at 80%
Target sequence (Q9GZU1 whole entry, looked up): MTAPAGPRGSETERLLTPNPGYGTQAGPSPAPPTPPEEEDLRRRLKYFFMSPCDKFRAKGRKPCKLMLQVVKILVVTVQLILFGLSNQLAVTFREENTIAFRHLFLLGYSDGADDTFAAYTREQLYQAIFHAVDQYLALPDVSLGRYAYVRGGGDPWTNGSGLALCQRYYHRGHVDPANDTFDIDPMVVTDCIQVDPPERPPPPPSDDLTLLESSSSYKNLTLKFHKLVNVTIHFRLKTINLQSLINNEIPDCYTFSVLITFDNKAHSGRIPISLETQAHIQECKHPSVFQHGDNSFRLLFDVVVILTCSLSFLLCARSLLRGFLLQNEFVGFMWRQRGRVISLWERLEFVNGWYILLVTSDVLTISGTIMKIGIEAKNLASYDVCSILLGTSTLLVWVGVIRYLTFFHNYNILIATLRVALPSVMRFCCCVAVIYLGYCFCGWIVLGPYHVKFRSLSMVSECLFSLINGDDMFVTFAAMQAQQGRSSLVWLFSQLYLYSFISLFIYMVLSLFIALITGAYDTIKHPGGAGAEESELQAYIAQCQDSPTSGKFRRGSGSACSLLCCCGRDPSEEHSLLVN
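Agonist activity was taken from a 110 s kinetic Ca2+ dye read on the FDSS after pinning compounds onto TRPML1-DL cells. The cells were seeded at 1,500/well with Tet inducer, incubated about 16 h, then dye-loaded at room temperature.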
gsp antag: qHTS for Antagonists of gsp, the Etiologic Mutation Responsible for Fibrous Dysplasia/McCune-Albright Syndrome: qHTS; gsp-mutant cells, cAMP HTRF, 30 min; control for the full effect not named in the record; Potency, µM (highest dose often 76.9 µM), for inactives: top-dose activity change, negative = inhibition, hits mostly inhibitors; 0.4% of 340,000 active; AID 624288, 2012; active = falling curve of any shape with a large fitted effect; inconclusive = falling curve, mostly with a smaller effect; inactive = flat or rising curve; cell line not stated here;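 also: intracellular cAMP measured with PDE inhibitor Ro 20-1724 present during compound exposure; potency is read from the fitted curve at half-maximal effect; % is scaled to controls: 0 for no effect and ±100 for the full control effect; nearly all actives have a fitted effect of over 65% in size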
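Cells, 2000/well, grown 16–24 h in DMEM 10% FBS with 0.5 mg/ml G418, then compounds plus […] (300 uM addition stock), 30 min at 37C. cAMP read by HTRF (cAMP-d2 and anti-cAMP antibody-K in lysis buffer) after 30 min RT.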
TRPML1 blocker: qHTS for Inhibitors of the Human Mucolipin Transient Receptor Potential 1 (TRPML1); Mucolipin-1 (Homo sapiens), Q9GZU1; activity change, negative = inhibition, % (no concentration beside the values); 0.02% of 390,000 active; TRPML1-inducible cells, Ca2+ dye fluorescence, FDSS; active compounds read low; inhibition of EC80 agonist-evoked calcium signal; in the data active means activity change below about -50%; inconclusive means about -30% to -50%; inactive means above about -30%;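 also: stimulus is agonist 54-4 at its EC80 concentration; % is scaled to controls: 0 for no effect and ±100 for the full control effect; compound concentration not given in the record; the text of the record puts the active cut at -80%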
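Tet-induced TRPML1-DL cells loaded with Ca8 no-wash calcium dye were read kinetically on FDSS. Compound addition was followed by EC80 agonist 54-4 (4 uM final); inhibition was read over 110 s.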
ClpP mod: qHTS Assay for Activators of ClpP; ATP-dependent Clp protease proteolytic subunit (Bacillus subtilis (strain 168)), P80244; purified B. subtilis ClpP, FRET peptide cleavage, 20 min; Potency, µM (titrated, usually from 57.5 µM), without a hit: top-dose activity change, negative = active; 1.9% of 340,000 active; active = well fitted falling curve with a large enough effect; inconclusive = small, poorly fitted or top-dose-only effect; inactive = no such curve, though single readings can be large or run the other way; also: potency is read from the fitted curve at half-maximal effect; the source files actives as falling curves though it sought activators and does not explain the sign; nearly all actives have a fitted effect of over 65% in size; many hits overshoot -100%
Target sequence (P80244 whole entry, looked up): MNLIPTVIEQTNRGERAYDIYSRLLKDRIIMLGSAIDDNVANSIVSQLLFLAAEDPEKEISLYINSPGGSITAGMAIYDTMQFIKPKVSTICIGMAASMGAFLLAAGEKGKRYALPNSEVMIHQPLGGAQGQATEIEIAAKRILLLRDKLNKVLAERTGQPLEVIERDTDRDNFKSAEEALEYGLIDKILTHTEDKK
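Purified B. subtilis ClpP, 10 microg/mL final in Tris/HCl pH8 with KCl, BSA, glycerol and Tween-20, cleaved an Abz/nitrotyrosine-quenched decapeptide. Fluorescence (ex 320, em 430) was read at 0 and 20 min at room temperature. Delta was normalized to 5.8 microM ADEP and DMSO/no-enzyme controls.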
gsp agonist: qHTS for Agonist of gsp, the Etiologic Mutation Responsible for Fibrous Dysplasia/McCune-Albright Syndrome: qHTS; 0.13% of 340,000 active; Potency, µM (titrated, usually from 76.9 µM), without a hit: at the highest dose activation (cAMP increase), most hits filed as activators; gsp mutant cells, cAMP HTRF, 30 min; control for the full effect not named in the record; AID 624287, 2012; active = well fitted activation curve with a large enough effect; inconclusive = small, poorly fitted or top-dose-only effect, or another doubt; inactive = no such curve, though single readings can be large or run the other way; cell line not stated here;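 also: phosphodiesterase inhibitor Ro 20-1724 added with compounds to block cAMP breakdown; potency is read from the fitted curve at half-maximal effect; nearly all actives have a fitted effect of over 60% in size; about a fifth of the inactives were tested at one dose only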
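Cells stably selected in G418 were plated at 2000/well, grown 16-24 hr, then given compounds in DMSO with the PDE inhibitor […] (300 uM solution added) for 30 min at 37C; cAMP was read by HTRF.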
* hit, by the source's call; ? = inconclusive; nt = not tested or not shown; & = joins results of further samples; [ ] = remark or other dose.

SMILES | Menin-MLL FL inh | TRPML1 ag | gsp antag | TRPML1 blocker | ClpP mod | gsp agonist
O=C(NNC(=S)Nc1ccccc1)Nc1ccccc1 | 0.7 | 0.6 | 1.0% | -3.5 | nt | 5.1%[15.4 µM]
CCCc1cc(=O)[nH]c2nnc(SCC(=O)N3CC(C)OC(C)C3)n12 (stereo not drawn) | nt | -0.6 | 11.2% | 2.2 | nt | -5.6%[15.4 µM]
CC1CCCCN1C(=O)c1ccccc1NC(=O)c1ccco1 (stereo not drawn) | 5.9 | 0.9 | -3.9% | -7.7 | -2.9% | 7.1%
COCC(C)n1c(C)cc(C(=O)Cn2c(=O)oc3ccccc32)c1C (stereo not drawn) | 0.5 | 0.4 | 7.2% | -6.0 | -12.1% | 0.1%
COc1cc(C2CC(=O)Oc3cc(OC)c(OC)c(OC)c32)cc(OC)c1OC (stereo not drawn) | nt | -0.7 | 0.3% | -0.7 | -5.9% | nt
COc1ccc(Cc2nc(-c3ccccc3)no2)cc1 | 5.1 | 2.2 | -9.0% | -10.0 | -0.6% | ?
COc1ccccc1C(=O)NCCC(=O)N1CCCCC1 | nt | 0.2 | -0.4% | -14.9 | -0.3% | 2.6%
Cc1ccc(C(=O)N2CCC(Cc3ccccc3)CC2)cc1S(=O)(=O)N1CCOCC1 | nt | 0.3 | -3.6% | 0.6 | 0.1% | 3.2%[15.4 µM]
Cc1nn(CC(=O)NC2CCCCC2)c(=O)c2cccn12 | 1.1 | 0.2 | 6.3% | 10.9 | -0.5% | -23.5%
Cc1ccccc1C(=O)NC1(C(F)(F)F)C(=O)Nc2c1c(=O)[nH]c(=O)n2CCc1ccccc1 (stereo not drawn) | nt | -0.6 | nt | -14.4 | -3.8% | nt
CC(C)C(=O)Nc1ccc2nc(SCC(=O)N3CCOCC3)sc2c1 | nt | 3.5 | nt | 10.7 | -1.6% | nt
CCO[C@@H]1OC(C(=O)NCc2nc3ccccc3[nH]2)=C[C@H](c2cn(C(C)=O)c3ccccc23)[C@H]1CCCO | ? | -0.3 | -13.4% | 12.3 | 0.2% | 1.9%
CCOc1ccc(NCCC#N)cc1 | -0.1 | -0.7 | -16.0% | -3.7 | -1.4% | -21.0%
CC(=O)Oc1c(/C=C(\C#N)C(N)=O)[nH]c2ccccc12 | 8.0 | 2.4 | ? | 43.6 | 25.1µM* | -2.0%
C=CCSc1nc2ccccc2n1S(=O)(=O)c1ccc(Cl)cc1 | nt | 0.6 | 1.3% | -13.0 | -0.2% | ?
NC(=S)NCc1cccnc1 | 0.6 | -0.2 | 2.8% | 1.5 | 3.3% | -38.4%[inhibitor]
CCCCN1CN(Cc2ccco2)CNC1=S | 6.2 | 0.0 | 2.4% | 3.5 | -5.4% | -4.3%[15.4 µM]
Cc1occc1C(=O)N1CCN(C(c2ccccc2)c2ccccc2)CC1 | -1.7 | 2.9 | -2.1% | 66.2 | 2.5% | -27.7%
O=C(O)C1NCCc2ccccc21 (stereo not drawn) | -11.3 | -0.3 | 3.9% | 16.7 | 0.7% | -8.9%
O=C(CSc1ncnc2ccccc12)Nc1cc(S(=O)(=O)N2CCCCC2)ccc1Cl | nt | 0.3 | 25.3% | 6.8 | -3.8% | 3.16µM*
O=C(COc1ccc(-n2cnnn2)cc1)Nc1ccc(F)cc1 | nt | -0.3 | -5.1% | 9.8 | -6.7% | 0.2%
COc1ccc(S(=O)(=O)Nc2nc(C(F)(F)F)cs2)cc1 | 7.7 | -0.7 | -0.9% | 21.9 | -1.4% | -19.2%
CCC(c1nc2ccccc2[nH]1)N(C(=O)Cc1cc(OC)cc(OC)c1)c1ccc(N2CCOCC2)cc1 (stereo not drawn) | nt | -0.8 | nt | -16.0 | 1.4% | nt
COc1cccc(NC(=O)CN(CCc2ccccc2)S(=O)(=O)c2ccc(Cl)cc2)c1 | nt | 2.0 | nt | -11.7 | -5.6% | nt
CCOC(=O)c1ccc(S(=O)(=O)NNC(=O)c2ccc3c(c2)nc(C)n3CC)cc1 | -5.4 | 0.6 | -1.6% | 9.4 | 0.4% | -4.9%
Following part
SMILES | Menin-MLL FL inh | TRPML1 ag | gsp antag | TRPML1 blocker | ClpP mod | gsp agonist
CC(C)[C@@H]1NC(=O)N(c2ccc(Oc3ccccc3)cc2)C1=O | -0.7 | 1.0 | 3.3%[15.4 µM] | -5.3 | -0.7% | -0.2%
COC(=O)CCCC1=CC2=CC(=O)C(C)(OC(=O)c3cccs3)C(=O)C2=CN1c1ccc(OC)cc1 (stereo not drawn) | -3.6[11.7 µM] | 0.7 | -17.2% | 25.8 | 3.6% | nt
CCN(c1ccccc1)S(=O)(=O)c1ccc(OC)c(NS(=O)(=O)c2cccs2)c1 | -1.9 | -0.9 | -10.4% | 7.3 | 0.3% | 18.6%
CCN(CC)c1ccc(C=C2C(=O)OC3(CCCC3)OC2=O)cc1 | ? | 1.0 | -3.2% | 5.4 | -1.1% | -31.6%[inhibitor]
COc1ccccc1NC1=C(N2CCCCC2)C(=O)c2ccccc2C1=O | 4.1 | 0.7 | -6.5% | -15.8 | 3.0% | 15.8%
COC(CNC(=O)CN1CCN(Cc2ccc(F)cc2Cl)C1=O)OC | 9.4 | 0.9 | 2.8% | 14.0 | nt | -17.9%
CN1C2CCC1CC(NC(=O)CSCc1ccc(Cl)cc1Cl)C2 (stereo not drawn) | -1.1 | -0.7 | 9.2% | 6.3 | nt | -0.5%[15.4 µM]
CN(C)CCCn1c(N)c(C#N)c2nc(C#N)c(C#N)nc21 | ? | -0.9 | 1.4% | -2.2 | -15.7% | 14.9%
COc1ccc(NS(=O)(=O)c2ccc3c(c2)n(C)c(=O)n3C)cc1 | 0.7 | 0.5 | -4.4% | -9.1 | 0.7% | 0.1%
O=C(O)c1cc(Cl)c2ccccc2c1O | 0.3 | -0.3 | ? | 5.0 | 28.2µM* | 0.0%
COc1ccc(N(CC(=O)NCc2ccc3c(c2)OCO3)C(=O)c2csnn2)cc1 | nt | -1.1 | 4.0% | -7.1 | -3.9% | 1.0%[15.4 µM]
CCn1c(CN2CCOCC2)nc2cc(NC(=O)c3cc(OC)c(OC)c(OC)c3)ccc21 | nt | -0.3 | nt | -0.4 | -15.3% | nt
O=C(CCS(=O)(=O)c1ccccc1Cl)NCc1ccc(F)cc1 | -1.3 | -0.7 | 1.8% | 19.3 | 2.6% | -32.2%[inhibitor]
COc1ccc(OC)c(/C=N/NC(=O)C(O)c2ccccc2)c1 (stereo not drawn) | -2.7 | -0.2 | 2.5% | -2.8 | 0.3% | 5.4%[15.4 µM]
CCOc1ccc(CNC(=O)c2ccc3oc(=O)n(Cc4ccccc4)c3c2)cc1 | nt | -0.2 | nt | -9.7 | -0.9% | nt
COc1cccc(NC(=O)CN(C)C(=O)CCNC(=O)c2ccc(Br)cc2)c1 | nt | -1.4 | -10.2% | -1.7 | -4.4% | 5.1%
COc1ccc(N(CC(=O)NC2CC3CCC2C3)S(=O)(=O)c2ccc(C)cc2)cc1 (stereo not drawn) | nt | 0.3 | -25.7% | -8.6 | -0.3% | -22.3%
O=C(NCCc1ccc(Cl)cc1)C1CCCN(S(=O)(=O)N2CCCCCC2)C1 (stereo not drawn) | -2.8 | -0.1 | -2.7% | -13.5 | -2.9% | 0.7%
COC(=O)c1cccc(C(=O)N2CCCC(CNC(=O)c3ccccc3Cl)C2)c1 (stereo not drawn) | -0.2 | 1.3 | 11.1% | 8.4 | -0.8% | 6.1%
CCOc1ccc(NC(=O)CSc2nnc(C3CC3)n2N)cc1 | -1.6 | 1.2 | 10.0% | 11.0 | -0.6% | -25.5%
Brc1ccccc1OCCCN1CCCCCC1 | -5.8 | 0.0 | 13.9% | 47.2 | nt | -3.8%[15.4 µM]
N#Cc1ccc(OCC(=O)OCC(=O)NCCC2=CCCCC2)cc1 | 0.3 | 1.4 | -14.0% | 22.7 | 1.5% | -7.2%
Cc1cc(CN2CCCC(CNC(=O)c3ccc(F)cc3)C2)cc(C)c1O (stereo not drawn) | 1.5 | 0.1 | -15.6% | -3.2 | -1.4% | 1.7%
CC1Sc2ccc(S(=O)(=O)CCC(=O)N3CCCCC3)cc2NC1=O (stereo not drawn) | -0.8 | -0.8 | 10.8% | 4.3 | 2.2% | 13.5%
O=C(COc1ccc(-n2cnnn2)cc1)Nc1ccc(Br)cc1F | nt | 0.2 | 3.2% | 5.2 | -0.8% | 3.3%[15.4 µM]
(list continues)
SMILES | Menin-MLL FL inh | TRPML1 ag | gsp antag | TRPML1 blocker | ClpP mod | gsp agonist
O=C(Nc1ccc(F)c(Cl)c1)C1CCCN(c2cnccn2)C1 (stereo not drawn) | nt | -0.1&-0.3 | -4.2% | 64.4&-0.9 | -29.8%&-23.5% | 24.6%
O=C(O)C1CCN(c2ccc(Cl)nn2)CC1 | -2.9 | 0.1 | 7.6% | -6.9 | -4.3% | -60.3%[inhibitor]
CCN1CCN(C(=O)/C(=C/c2cccs2)NC(=O)c2ccc(C)c(C)c2)CC1 | nt | 0.6 | 3.7% | -1.5 | -3.4% | -1.1%
C=CCOC(=O)C1=C(C)NC(C)=C(C(=O)OCC=C)C1c1ccco1 | 2.6 | 1.9 | 3.8% | 20.7 | ? | 2.7%
C=CCOc1cccc(C2C(C(=O)c3cccs3)=C(O)C(=O)N2Cc2cccnc2)c1 (stereo not drawn) | -0.3 | 0.5 | 8.8% | 6.1 | nt | 1.2%[15.4 µM]
Cc1ccccc1-n1c(C)c(C#N)c(=O)c(-[n+]2ccccc2)c1[S-] | -2.2 | 0.6 | 1.9% | -20.5 | -1.1% | 6.6%
CN(C)C=Nc1ncc2c([nH]c3ccccc32)c1C#N | 7.2 | -1.3 | 12.9% | -1.0 | ? | 0.0%
Cc1c(C(=O)Nc2ccccc2)csc1-c1ccccc1 | 3.4 | 0.5 | -6.7% | 33.6 | -4.9% | 1.1%
CCN1C=C(Cc2cccs2)C2=C(C1)C(c1cccs1)C(C#N)=C(N)O2 (stereo not drawn) | ? | 2.9 | -30.0% | -12.0 | -3.3% | -1.7%
CCN(CC)CCC(c1ccc2c(c1)OCO2)c1c(OC)cc(OC)c2ccc(=O)oc12 (stereo not drawn) | -0.7 | 4.4 | 6.3% | -8.7 | -9.3% | nt

Screening results from PubChem BioAssay.
